Screening results from PubChem BioAssay.
PrP 5UTR inh = inhibition of PrP 5' UTR reporter expression. inhibition, % (no concentration beside the values). 0.35% of 340,000 active. cell-based PrP 5' UTR mRNA reporter, plate reader;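 active = every replicate at 50% or more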;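 note: 0 = median of the neutral control wells; tested in H4 reporter cells; numbers are from one replicate; inactives centre near -14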
BJeLR viability = BJeLR cell viability loss; AID 1554; BJeLR (HRASV12) viability, CellTiter-Glo ATP luminescence, 48 h; reference of the scale not given here; inhibition, % (concentration not given with the values); 0.17% of 300,000 active;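 active = replicate mean above 50%; inconclusive = above 50% but judged a plate artefact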;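 note: 50 nL library stock added to about 25 µL; numbers are from one replicate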
Mtb hypoxia inh = Mtb hypoxia fluorescent reporter inhibition. M. tuberculosis hypoxia-regulated fluorescent reporter, fluorescence. fluorescence inhibition, % (test concentration not listed). 0.1% of 300,000 active. AID 1159583;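 active = 35 to 45% if threefold the growth effect, above 45% if 1.5-fold the growth effect; inactive = the rest, general growth blockers included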;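 note: wells of about 50 µL received 100 nL stock; 0% = vehicle wells and 100% = reference inhibitor wells; whole bacteria with a GFP reporter of the hypoxia response; strong numbers were not always called active; many hits fall short of the cut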
Sa ugtP lethal = compounds lethal to S. aureus RN4220 ugtP deletion mutant; growth inhibition, % (concentration not given with the values); 0.54% of 330,000 active; OD600 growth, 16 h; some inactives read as strong as hits;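 active = z-score under -3 and OD600 up to 0.15 on both plates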;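 note: plate controls were untreated wells for no effect and antibiotic for full effect; wells of about 80 µL received 100 nL stock; the first replicate is given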
RN4220 kill = kills Staphylococcus aureus RN4220; S. aureus RN4220 growth, OD600, 16 h; inhibition, % (no concentration beside the values); 0.33% of 330,000 active; AID 1259311;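 active = z-score of -3 or lower and OD600 up to 0.18 on both plates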;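 note: plate controls were untreated cells for no effect and reference antibiotic for full effect; stock transfer was 100 nL into about 80 µL; one replicate is shown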
Autofluor counter = counter-screen for toxin protease inhibitors: compound fluorescence; compound autofluorescence counterscreen, microsphere flow cytometry; active compounds read high; 3.1% of 360,000 active; fluorescence intensity (no concentration beside the values);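 active = at least 3 SD above the mean of all compounds, about 16000 in these data; inconclusive = too few beads counted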;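 note: 100 nL of 1 mM stock went into each well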
Mtb hypoxia inh growth = also measured in Mtb hypoxia inh; calls as there; growth inhibition, %; measured here: M. tuberculosis growth (absorbance);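 0% = vehicle and 100% = reference antibiotic; read after six days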
* hit, by the source's call; ? = inconclusive; / = no result given.

The opening 5 entries (preview)
Molecule	Sa ugtP lethal	RN4220 kill	PrP 5UTR inh	Mtb hypoxia inh growth	BJeLR viability	Mtb hypoxia inh	Autofluor counter
Cc1ccc(C(=O)NC2CCCCC2)cc1	1	3.3	-90	/	-6	/	8079
COc1ccc(CC(=O)NC(C)c2nnc(SCC(=O)c3ccc(OC)cc3)n2C)cc1 (configuration not stated)	4	-11	-15	8	3	5	4304
CCOC(=O)C1CCCN(C(=O)c2cc(S(=O)(=O)N3CCCCC3)c[nH]2)C1 (configuration not stated)	-5	7.7	-14	4	17	1	6095
Cc1ccc2c(CC(=O)NCC3COc4ccccc4O3)coc2c1 (configuration not stated)	3	-8.0	-13	/	-9	/	4193
N#Cc1cn(Cc2ccccc2)c2ccccc12	14	-0.8	-26	/	1	/	4807

This part in full (from the top)
Molecule	Sa ugtP lethal	RN4220 kill	PrP 5UTR inh	Mtb hypoxia inh growth	BJeLR viability	Mtb hypoxia inh	Autofluor counter
Cc1ccc(C(=O)NC2CCCCC2)cc1	1	3.3	-90	/	-6	/	8079
COc1ccc(CC(=O)NC(C)c2nnc(SCC(=O)c3ccc(OC)cc3)n2C)cc1 (configuration not stated)	4	-11	-15	8	3	5	4304
CCOC(=O)C1CCCN(C(=O)c2cc(S(=O)(=O)N3CCCCC3)c[nH]2)C1 (configuration not stated)	-5	7.7	-14	4	17	1	6095
Cc1ccc2c(CC(=O)NCC3COc4ccccc4O3)coc2c1 (configuration not stated)	3	-8.0	-13	/	-9	/	4193
N#Cc1cn(Cc2ccccc2)c2ccccc12	14	-0.8	-26	/	1	/	4807
COc1ccc(CCNCC(O)COc2ccc(Cl)cc2)cc1OC (configuration not stated)	-2	-0.5	-17	-5	-5	6	5613
COCC(=O)Nc1nc2n(n1)C(c1ccccc1Cl)CC(c1ccc(OC)cc1)N2 (configuration not stated)	-4	3.3	-26	9	2	2	20336*
C=CCn1c(C)cc(-c2csc(NC(=O)C3=COCCO3)n2)c1C	-5	9.0	-108	11	-4	-2	5334
O=C(/C=C/c1ccco1)c1ccc(NC(=O)C23CC4CC(CC(C4)C2)C3)cc1	4	11	-7	/	-14	/	2945
C[C@@H]1CC[C@@]2(NC1)O[C@H]1C[C@H]3[C@@H]4CC=C5C[C@@H](O)CC[C@]5(C)[C@H]4CC[C@]3(C)[C@H]1[C@@H]2C	2	3.0	-13	-2	5	11	3029
CCN(CC(=O)Nc1ccc2c(c1)OCCO2)C(=O)/C=C/c1ccc(OC)cc1OC	29	-1.6	-19	0	2	9	4744
Cc1ccc2c(c1)c1ncn(Cc3ccc(F)cc3)c(=O)c1n2C	-7	0.3	-11	7	-4	2	3045
COc1ccc(NC(=O)C(C)Oc2ccc(/C(C)=N\O)cc2)cc1 (configuration not stated)	/	/	-12	/	25	/	3184
CCN1CCc2c(sc(NC(=S)NC(=O)c3ccc(Cl)cc3)c2C(N)=O)C1	9	3.4	-2	2	5	9	16287*
O=C(c1cc(COc2ccc(F)cc2Cl)on1)N1CCN(C2CCCC2)CC1	-12	-3.3	2	-2	2	-1	?
Cc1ccc(OCCC(=O)NNC(=O)c2cc(C)oc2C)cc1	9	5.0	-23	-2	9	-2	5130
O=C(CSc1nc2ccccc2o1)Nc1ccccc1N1CCCCCC1	-8	-0.8	-4	3	5	-2	/
CN(C)S(=O)(=O)N1CCc2ccc(NC(=O)c3ccccc3Cl)cc2C1	6	0.8	-37	-1	-3	9	/
O=C(CSc1nnc(-c2ccc(F)cc2)c2ccccc12)Nc1c(F)cccc1F	-2	0.4	0	-3	10	-2	2253
S=c1[nH]nc(COc2ccc3c(c2)OCO3)n1-c1ccccc1	9	-2.6	-5	2	3	-2	3153
COc1cccc(NC(=O)CSc2ccc3nnc(CCNC(=O)c4ccccc4)n3n2)c1	8	3.8	-5	-5	1	-4	6358
COc1ccc(NS(=O)(=O)c2c(F)cc(F)c(Cl)c2F)cc1S(=O)(=O)N1CCCCC1	-4	11	-7	6	-22	18	1970
COc1ccc(OC)c(S(=O)(=O)CC(O)COc2ccccc2Cl)c1 (configuration not stated)	7	5.0	-5	8	12	3	4911
O=C(Nc1nnc(C2CC2)s1)C1Cc2ccccc2CN1S(=O)(=O)c1ccccc1F (configuration not stated)	-11	5.8	-47	3	4	2	7712
CCOC(=O)COc1cccc2c(=O)n(CC(=O)NCc3ccc4c(c3)OCO4)ccc12	6	5.7	-25	1	20	7	5649
CCOc1ccc(NC(=O)CSc2ccc3nnc(-c4ccccn4)n3n2)cc1	0	1.2	4	-2	0	-5	?
Cc1ccc(-n2nnnc2SCC(=O)NNC(=O)c2ccco2)cc1C	11	1.8	-14	12	-8	6	10576
Cc1ccc(Nc2ccc3nonc3c2[N+](=O)[O-])cc1	-2	8.2	-9	3	-6	-16	2456
CNC(=O)Cc1csc2ccc(Cl)cc12	6	0.5	-6	/	2	/	4406
N#Cc1ccc(/C=N/N=C(N)N)cc1	/	/	-26	/	-6	/	3741
N#C[C@H]1C2OC2c2ccccc2N1C(=O)c1ccccc1 (some centres not stated)	-5	1.6	-36	/	-11	/	5188
Nn1c(SCC(=O)Nc2cccnc2Cl)nnc1-c1ccccc1	8	2.9	-10	1	/	3	2944
O=C(/C=C/c1ccccc1)n1cnnc1SC/C=C/c1ccccc1	-5	1.8	-13	3	9	5	2627
CC(=NNC(=O)c1cccc([N+](=O)[O-])c1)c1cccs1	-2	4.7	/	7	/	15	/
Oc1cccc(/C=N/N2CCCCC2)c1O	/	/	-25	/	1	/	3119
CCOc1ccccc1NC(=O)c1cc(S(=O)(=O)N2CCOCC2)ccc1C	7	1.4	-11	-15	2	2	5760
CC1(C)CC(=O)c2cc(OCC(=O)O)ccc2O1	3	2.3	-11	5	-30	3	24044*
CCc1noc(C)c1C(=O)NNC(=O)c1ccccc1Cl	0	0.2	-6	2	/	-4	8660
O=C(CCC(=O)Nc1ccc(F)cc1)NN=Cc1ccc(Br)cc1	4	-4.0	/	8	/	2	/
Cc1cc(C(=O)Nc2c(C)nn(Cc3c(Cl)cccc3Cl)c2C)no1	1	3.0	-9	4	21	10	15443
CN1CCN(C(=O)/C(=C/c2ccco2)NC(=O)c2ccccc2)CC1	2	-3.2	-18	4	-5	8	3878
CNC(=S)NC1CC2CCCC(C1)N2CC(C)C (configuration not stated)	8	2.8	-20	7	2	11	4997
O=C(CCCCn1c(=O)c2ccccc2n(Cc2ccccc2)c1=O)NC1CCN(Cc2ccccc2)CC1	3	8.2	8	2	-4	-3	4811
Cn1cnnc1SCC(=O)NC1CCCc2ccccc21 (configuration not stated)	10	6.9	-5	10	5	5	4082
O=C(C1CCN(S(=O)(=O)c2cccc3cccnc23)CC1)N1CCN(c2ccccn2)CC1	2	1.9	13	4	-1	9	4525
COc1cc(C(=O)Nc2ccc3c(c2)OCCO3)ccc1-n1cnnn1	3	3.9	-8	5	-13	1	11011
O=C(NCC1CCN(Cc2ccccc2F)CC1)Nc1cccc(Br)c1	16	-3.8	-8	7	0	12	3552
COC(=O)c1c(-c2ccccc2)csc1NC1=NS(=O)(=O)c2ccccc21	2	6.3	-97	7	3	7	1956
CCCn1ccnc1SC(C)C(=O)Nc1c(C)n(C)n(-c2ccccc2)c1=O (configuration not stated)	5	0.5	-15	2	/	2	5768
CCOC(=O)c1c(NC(=O)C(=O)N/N=C/c2ccccc2OC)sc2c1CCCCC2	/	/	-34	/	-5	/	2577
CCOc1ccc(CCNC(=O)COc2cc(=O)n(C)c3ccccc23)cc1OCC	-1	1.6	-14	4	-2	7	2723
O=C(COC(=O)c1ccc(O)cc1)Nc1ccc(Cl)cc1C(=O)c1ccccc1	-8	-3.1	-33	7	-2	5	2110
C=CCN(CC=C)C(=S)NC(=O)c1ccc(OC)cc1	4	2.3	-11	33	-2	20	3335
COc1ccccc1OCCCCN1CCN(c2ccccc2OC)CC1	11	-1.7	-6	/	23	/	3127
CC(Sc1nnc(-c2ccc(Cl)cc2)n1C)C(N)=O (configuration not stated)	-5	-1.2	-22	-6	3	-1	9977
O=C(NCc1ccccc1C(F)(F)F)C1CC(c2ccc(C(F)(F)F)cc2)=NO1 (configuration not stated)	-17	1.8	-10	4	0	-4	2945
N/C(=N\S(=O)(=O)c1ccccc1)c1ccc([N+](=O)[O-])cc1	/	/	-21	/	-11	/	2129
CSc1nnc(-c2ccc(S(=O)(=O)N3CCCC3)cc2)n1C	-1	3.2	-4	16	-10	5	11506
COc1ccc(OCC(O)Cn2ccnc2C)cc1 (configuration not stated)	-1	-1.2	-7	7	3	0	4320
O=C(Nc1ccccc1NS(=O)(=O)c1ccc(F)cc1)C1CCCC1	8	0.8	-18	-3	8	-1	4178

(further entries)
Molecule	Sa ugtP lethal	RN4220 kill	PrP 5UTR inh	Mtb hypoxia inh growth	BJeLR viability	Mtb hypoxia inh	Autofluor counter
C/C(=C\c1ccccc1)CN1CCN(C(C)C)C(CCO)C1 (configuration not stated)	2	0.5	15	1	-11	-6	3208
CC(CNc1ccc([N+](=O)[O-])c2cccnc12)Nc1c([N+](=O)[O-])cc(C(F)(F)F)cc1[N+](=O)[O-] (configuration not stated)	-3	9.0	-47	0	-2	3	2121
CC(=O)c1ccc(NC(=O)CSc2nc3ccccc3c(=O)n2CCCN2CCOCC2)cc1	3	-0.4	-8	14	/	4	3650
COc1ccc(OC)c(S(=O)(=O)N2CCCc3ccccc32)c1	0	-6.4	-2	9	-4	16	2895
Cn1c(/C(C#N)=C(\O)c2cc(Cl)sc2Cl)nc2ccccc21	0	-0.1	-20	-6	-2	0	/
CCc1nc(C(N)=O)c2[nH]c(=O)n(-c3ccccc3F)c2n1	2	1.4	-12	5	8	2	5545
CCOCCn1ccc2c(OCC(=O)Nc3cc(OC)ccc3OC)cccc2c1=O	-3	-0.2	-14	14	1	8	6820
O=C(CSc1nnc(CNC(=O)c2ccco2)o1)Nc1ccccc1C(F)(F)F	-2	-0.3	-18	0	-12	-1	5489
COc1ccc(C(=O)ON=C(C)c2cnccn2)cc1	20	6.7	/	3	/	9	/
O=C(Cc1n[nH]c(=O)c2ccccc12)NCc1ccc(Cl)cc1	3	0.0	4	1	-2	13	4710
Nc1nc(SCC(=O)Nc2ccc(Br)cc2Br)n[nH]1	7	3.9	-41	8	/	12	3704
N#Cc1nc(Cc2cccc3ccccc23)oc1N1CCC(C(N)=O)CC1	-1	-9.8	-10	3	5	17	3199
CC(c1ccccn1)N(C)C(=O)c1ccc2nc(Cc3ccccc3F)oc2c1 (configuration not stated)	3	2.0	-70	0	-4	6	5085
CCN1C(=O)[C@H]2[C@H]3CN=C(SCc4ccc(C(=O)OC)cc4)N3[C@@](Cc3ccccc3)(C(=O)OC)[C@H]2C1=O	-4	3.2	-8	8	/	-4	3654
CN(C)c1ccc(C2N3CC4(C)CN2CC(C)(C3)C4O)cc1 (configuration not stated)	18	25	13	-2	6	-5	4567
COc1ccc(C(=O)Nc2nnc(-c3ccccc3)o2)cc1OC	10	8.4	-42	/	-1	/	4371
Cc1cccc(Cl)c1NC(=O)N1CCN(c2ccnc3cc(Cl)ccc23)CC1	5	4.3	-4	0	-3	7	5780
COc1ccccc1N1CCN(C2CCCN(C(=O)CC(F)(F)F)C2)CC1 (configuration not stated)	13	4.4	-22	2	0	-1	4234
C=CCn1c2ccccc2c2nnc(SCC(=O)OCN3C(=O)c4ccccc4C3=O)nc21	15	26	-4	-5	0	-1	2542
CCN(c1ccccc1)S(=O)(=O)c1ccc(C(=O)NC2CCN(Cc3ccccc3)CC2)cc1	6	1.8	-28	8	/	1	3973
COC(=O)C(c1ccccc1)C1(O)CC(C)N(C)CC1C (configuration not stated)	9	4.9	-10	-1	-7	0	2948
CCOc1ccccc1N1CCN(S(=O)(=O)c2ccc3c4c(cccc24)C(=O)N3)CC1	-5	2.2	-41	-4	6	0	4082
O=C(/C=C/c1cccc([N+](=O)[O-])c1)NCCSCc1ccc(Cl)cc1	-15	2.7	-13	5	10	14	2437
